Screens as filed in PubChem.
Biofilm kill mix = mixtures killing C. albicans biofilm; C. albicans biofilm persisters + clotrimazole, fluorescence viability; primary screen in compound mixtures of four per well; inhibition, % at 7.6 µM; AID 1242; actives 0.02% (n = 120,000);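 active = inhibition above 30.3% in the primary screen of four-compound pools, then above 30% when the compound was retested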;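 also: compounds exposed to preformed 24 h biofilms for 48 h; the number belongs to the whole pool; some results filed as inactive read as strong as hits; inactives centre near 12; 0% = biofilm with clotrimazole alone and 100% = kill control; retested singly at about 60 µM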
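Assay system: C. albicans biofilms / Medium: RPMI/MOPS medium, pH 7.0 / Schedule: biofilm formation 24 h, compound exposure 48 h, 37 °C / Measured by: Alamar Blue fluorescence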
Active calls of the source: *. This is a subset, so the mix of outcomes need not match the whole.

Start of the listing, in advance, two compounds:
SMILES | Biofilm kill mix
CCc1cccc(Nc2cc(C)nc3ncnn23)c1 | 12
O=C(O)CCC(=O)Nc1ccc(S(=O)(=O)Nc2nccs2)cc1 | 15

This part in full (from the top)
SMILES | Biofilm kill mix
CCc1cccc(Nc2cc(C)nc3ncnn23)c1 | 12
O=C(O)CCC(=O)Nc1ccc(S(=O)(=O)Nc2nccs2)cc1 | 15
N=c1ccn(Cc2cccc(F)c2)cc1 | 24
N#Cc1c(Nc2ccccc2Cl)s[nH]c1=O | 2
Nc1ncc(Br)cc1Br | 18
C#CCN(C(=O)Nc1ccccc1)c1ccccc1 | 7
Cn1nnnc1SCC(=O)NCc1cccs1 | 20
CC[C@H](C)[C@H](NC(N)=O)C(=O)Nc1ccc(S(=O)(=O)NC(C)C)cc1 | 15
Brc1cc(Cc2nnc(-c3ccccc3)o2)c(Br)s1 | 8
COc1ccc(CNC(=O)c2ccc3c(c2)NC(=O)C(C)S3)cc1 (stereo unspecified) | 30
O=C(Nc1ccccc1)Nc1ccccc1C(=O)NCC1CC1 | 9
CNCCOc1ccccc1OC(C)C | 29
CC(/C=C/C=C/c1ccccc1)=N/NC(=O)c1ccc2c(c1)OCCO2 | 11
O=C(NC(C(=O)c1ccccc1)N1CCCCCC1)c1ccco1 (stereo unspecified) | 13
CCN(C(=O)COC(=O)/C=C/c1ccccc1[N+](=O)[O-])C1CCS(=O)(=O)C1 (stereo unspecified) | 3
CC1(c2ccc(Cl)cc2)NC(=O)N(CC(=O)NCc2cccs2)C1=O (stereo unspecified) | 14
N#Cc1cn(CC(=O)N2CCc3ccccc3C2)c2ccccc12 | 10
Cc1cc(=O)[nH]c(SCC(=O)Nc2nc(-c3ccccc3)c(-c3ccccc3)o2)n1 | 15
COC(=O)c1ccc(S(=O)(=O)NCc2ccc(S(N)(=O)=O)cc2)o1 | 18
O=C(CSc1ccc([N+](=O)[O-])cn1)Nc1ccc2c(c1)OCCO2 | 14
CCCCn1nnc(NC(=O)c2ccc([N+](=O)[O-])cc2Cl)n1 | 7
Cc1c(Cl)cccc1NC(=O)Nc1ccc(C(=O)N2CCCC2)cc1 | -4
CCc1sc(NC(C)=O)nc1-c1ccccc1 | 16
Cc1ccc(S(=O)(=O)N2CCN(C(=O)c3cccs3)CC2)cc1C | 13
Oc1ccc(N=Cc2ccc(OCc3ccccc3)cc2)cc1 | 13

The list continues:
SMILES | Biofilm kill mix
N#C/C(=C\c1cn(CC(=O)N2CCCCC2)c2ccccc12)C(=O)NCc1ccc2c(c1)OCO2 | 13
COC(=O)CCCNC(=O)c1ccc2[nH]c(C)c(C)c2c1 | 13
CCC1CCC(C(=O)NNC(=O)OC)CC1 (stereo unspecified) | 12
COCCNC(=O)CCCn1c(=O)c2cc(OC)c(OC)cc2n(CC(=O)NCCC2=CCCCC2)c1=O | 13
O=C(NC(=O)c1ccccc1)Nc1ccc(-c2cnco2)cc1 | 18
O=C(NCCC(c1ccccc1)c1ccccc1)c1cnccn1 | 5
Cn1c(N2CCN(S(=O)(=O)c3ccc(Cl)cc3)CC2)nc2ccccc21 | 20
COC(=O)C1(C)CCc2cc(OC)ccc2C1=O (stereo unspecified) | 14
CC(=O)Nc1c(C)cc(OCC(=O)O)cc1C | 12
CC(=O)c1ccc(NCCC(=O)c2ccccc2)cc1 | 10
O=[N+]([O-])c1sccc1CS(=O)(=O)c1ccccc1 | 17
Cc1ccc(C(=O)N2CCN(c3ccccc3F)CC2)cc1S(=O)(=O)N1CCOCC1 | 11
CCOC(=O)Cc1csc(NC(=O)Nc2cccc(OC)c2)n1 | 15
CCSc1nc2ccc(N3C(=O)C4C5C=CC(C5)C4C3=O)cc2s1 (stereo unspecified) | 14
c1cc2c(cc1OCCNC1CCCC1)CCC2 | 20
N#C/C(=C\c1ccc(N2CCCCC2)o1)C(N)=O | 20
CCN(CC)Cc1c(O)ccc2occ(C(=O)c3ccc(OC)cc3)c12 | 16
CC(C)Oc1ccc(N2CC(C(=O)Nc3ccc(N4CCOCC4)cc3)CC2=O)cc1 (stereo unspecified) | 14
CC(=O)Nc1c([N+](=O)[O-])cc(C)c(Cl)c1[N+](=O)[O-] | -2
CC(C)c1ccc(S(=O)(=O)/N=C2/C=C(Sc3ncn[nH]3)C(=O)c3ccccc32)cc1 | 6
CC(C)[N+]1(C)[C@@H]2CC[C@H]1CC(OC(=O)C(CO)c1ccccc1)C2 (stereo partly specified) | 12
COc1ccc(CCNC(=O)CCc2ccc(S(=O)(=O)NCC(C)C)cc2)cc1 | 9
Cc1nc2cc(NS(=O)(=O)c3ccccc3F)ccc2s1 | 20
Cc1ccc(-c2nc(CN(C)C3CCOC3)c(C)o2)s1 (stereo unspecified) | -5
O=C(NC(=S)Nc1ccc(N2CCOCC2)cc1)c1cccs1 | 16

Taken from above:
Reading of Cc1ccc(-c2nc(CN(C)C3CCOC3)c(C)o2)s1 (stereo unspecified) under Biofilm kill mix: -5
Reading of CC(C)Oc1ccc(N2CC(C(=O)Nc3ccc(N4CCOCC4)cc3)CC2=O)cc1 (stereo unspecified) under Biofilm kill mix: 14

Quoted at random: five compounds from above.
SMILES | Biofilm kill mix
CC(=O)Nc1c([N+](=O)[O-])cc(C)c(Cl)c1[N+](=O)[O-] | -2
CC1(c2ccc(Cl)cc2)NC(=O)N(CC(=O)NCc2cccs2)C1=O (stereo unspecified) | 14
CC(=O)Nc1c(C)cc(OCC(=O)O)cc1C | 12
Nc1ncc(Br)cc1Br | 18
CCN(C(=O)COC(=O)/C=C/c1ccccc1[N+](=O)[O-])C1CCS(=O)(=O)C1 (stereo unspecified) | 3

Further entries:
SMILES | Biofilm kill mix
Cc1[nH]nc2c1C(c1ccco1)C(C#N)=C(N)O2 (stereo unspecified) | 7
COc1ccccc1NC(=S)N(Cc1ccco1)Cc1cc2ccc(C)c(C)c2[nH]c1=O | 18
NC1=NC2(CCCCC2)N(c2ccc(F)cc2F)C(N)=N1 | 27
Cc1nsc(N)c1C(=O)O | 15
CCCC(=O)Nc1ccc(C(=O)Nc2cccc(OC)c2)cc1 | 12
Cc1ccc(NC(=O)N2CCN(C/C=C/c3ccccc3)CC2)cc1 | 8
COc1ccc(OCC(=O)N/N=C(\C)c2cc3ccccc3o2)cc1 | -8
O=C(NCCNc1nccc(C(F)(F)F)n1)c1cccs1 | 18
Cc1ccc(CN2CCNC(=O)C2CC(=O)N(C)CCc2ccccc2)cc1 (stereo unspecified) | 15
O=C(NNC(=O)c1ccncc1)NC1CCCCC1 | 23
CCOC(=O)C(NC(C)=O)(NC(C)C)C(F)(F)F (stereo unspecified) | 23
O=C(NC(=S)NNC(=O)[C@H]1C[C@@H]1c1ccccc1)c1ccc(F)cc1 | -1
Cc1ccc(NC(=O)C2(C)Cc3ccccc3C(=O)O2)cc1 (stereo unspecified) | 14
COc1cc(C(=O)C(=O)c2ccc(O)c(OC)c2)ccc1O | 25
COC(=O)c1ccc(Oc2nc(NC(C)C)nc(NC(C)C)n2)cc1 | 17
COc1ccc(S(=O)(=O)N2CCc3cc(OC)c(OC)cc3C2)cc1 | 19
COC(=O)Cc1[nH]nc2c1C(c1ccc(O)c(OC)c1)C(C#N)=C(N)O2 (stereo unspecified) | 20
Cc1ccc(S(=O)(=O)NC(=O)c2ccc(Br)o2)c(C)c1 | 13
CCC(=O)N1CCN(c2ccc(NC(=S)NC(=O)c3ccc(OC)c([N+](=O)[O-])c3)cc2)CC1 | 14
COc1ccccc1OCc1csc(N)n1 | 7
Cc1ccccc1CSc1nnc(-c2ccncc2)o1 | 20
CCCc1cc(=O)[nH]c(SCC(=O)Nc2sc3c(c2C#N)CCC(C)C3)n1 (stereo unspecified) | -2
CCNC(=S)N/N=C1\CCCCc2ccccc21 | 10
CN1CCN(NC(=O)CSc2ccc(Cl)cc2Cl)CC1 | 7
CCOC(=O)c1cc(CC)sc1/N=C/C1=C(O)CC(C)(C)CC1=O | 13

The list continues:
SMILES | Biofilm kill mix
CC1CCCCN1C(=S)NCc1ccccc1 (stereo unspecified) | 17
S=C(NNC(=S)NC1CC2CCC1C2)NC1CC2C=CC1C2 (stereo unspecified) | 12
CN(C)S(=O)(=O)c1cc(C(=O)OCCn2cnc3c2c(=O)n(C)c(=O)n3C)ccc1Cl | 5
O=C(O)c1ccc(C=C(c2nc3ccccc3s2)c2nc3ccccc3s2)cc1 | 15
COC(=O)c1ccc(/C=N/NC(=S)NCCN2CCOCC2)cc1 | 4
CN(C)CCNC(=O)CNC(=S)N(Cc1ccccc1)Cc1ccccc1F | 14
CN(C)c1cc(-c2ccc(C#N)cc2)oc(=O)c1Cl | 6
COc1cccc(CN=C2Nc3ccccc3CS2)c1 | 10
Cc1cc(/C=N/n2c(COc3ccccc3)nc3ccccc3c2=O)c(O)c([N+](=O)[O-])c1 | 5
CN(C)S(=O)(=O)c1ccc(N=Cc2c(C(F)(F)F)[nH][nH]c2=O)cc1 | 12
COCCOC(=O)C1=C(C)NC(C)=C(C(=O)OC(C)C)C1c1cccc([N+](=O)[O-])c1 (stereo unspecified) | 1
COc1ccc(/C=C2\SC(=S)N(N3C(=O)CCC3=O)C2=O)cc1O | 2
Brc1csc(C=Nc2ccc3c(c2)OCCOCCOCCOCCO3)c1 | 6
CSc1ncccc1C(=O)Nc1ccc2nc(C)sc2c1 | 20
COc1ccc2c(c1)c(CC(=O)OCC(N)=O)c(C)n2C(=O)c1ccc(Cl)cc1 | 15
Cc1cccc(NC(=O)c2ccc3c(Cl)c4c(nc3c2)CCCC4)n1 | 1
CC(C)N1C(=O)CCC1C(=O)NCc1ccco1 (stereo unspecified) | 12
CN(Cc1cccs1)C(=O)c1ccc(S(=O)(=O)N2CCCCC2)cc1 | 25
CCOc1cccc(C2c3c(oc4ccccc4c3=O)C(=O)N2c2ccccn2)c1 (stereo unspecified) | 17
CN1/C(=C\C(=O)COC(=O)c2ccc(O)c(O)c2)C(C)(C)c2ccccc21 | -1
COc1ccc(OCC(=O)NC(=S)NNC(=O)COc2ccc(Br)cc2Cl)cc1 | 10
CN(CCCC1CCCC1)C(=O)CCc1nnc(-c2ccccc2)o1 | 9
COc1ccc(CC(=O)NCc2n[nH]c(=S)n2-c2cccc(C)c2)cc1 | -15
COCCSc1ccccc1C(=O)Nc1ccc(Br)cc1 | 7
O=C(c1ccc2c(c1)OCO2)C1CCCN(C(=O)NCc2ccccc2)C1 (stereo unspecified) | 11

Shown field by field: part of the list above.
> O=C(O)CCC(=O)Nc1ccc(S(=O)(=O)Nc2nccs2)cc1
- Biofilm kill mix: 15
> N=c1ccn(Cc2cccc(F)c2)cc1
- Biofilm kill mix: 24
> N#Cc1c(Nc2ccccc2Cl)s[nH]c1=O
- Biofilm kill mix: 2
> Nc1ncc(Br)cc1Br
- Biofilm kill mix: 18

Additional compounds follow.
SMILES | Biofilm kill mix
CCO[C@H]1OC(C(=O)N2CCCCCCC2)=C[C@@H](c2ccccc2)[C@@H]1CCCO | 11
Oc1cc(-n2cccn2)c(O)cc1-n1cccn1 | 18
C[N+]1(CCCOC(=O)C2(c3ccccc3)CCCC2)CCOCC1 | 18
CCOC(=O)c1c(C)[nH]c(C(=O)COC(=O)COc2ccc(OC)cc2)c1C | 20
O=C(Cn1c(CO)nc2ccccc21)NCc1ccc2c(c1)OCO2 | 8
Cc1cccc(/C=N/NC(=O)C2CCCNC2=O)c1 (stereo unspecified) | 3
CCOC(=O)c1nnsc1N | 15
O=C(NNC(=O)c1ccco1)c1ccccc1 | -10
CCCC1Cc2nc(Cl)c(C#N)cc2CO1 (stereo unspecified) | 15
CCCCNC(=S)NNC(=O)CCn1cc(C)cn1 | 6
Cc1ccc([N+](=O)[O-])cc1NC(=O)Cc1ccc(F)cc1 | 1
C/C(=N\NS(=O)(=O)c1ccc(C)cc1)c1ccc(C)o1 | 12
COC(=O)c1ccccc1NC(=O)CN1CCCCC1 | 20
NS(=O)(=O)c1ccc(CCNCC(=O)N2CCC(Cc3ccccc3)CC2)cc1 | 5
COc1ccc(-c2ccc(SCC(=O)Nc3cccc(C(C)=O)c3)nn2)cc1OC | 18
COc1cccc(N2CCN(C(=O)/C=C/c3ccco3)CC2)c1 | 1
NCCOc1ccc(C23CC4CC(CC(C4)C2)C3)cc1 | 10
CCC(=O)NCc1ccc2[nH]c(C)cc2c1 | 9
Cc1c(N2C(=O)/C(=C\c3ccccc3O)SC2=S)c(=O)n(-c2ccccc2)n1C | 22
COc1cc(/C(C)=N/NC(=S)NC(C)C)cc(OC)c1OC | 19
CCOC(=O)c1csc(NC(=O)COc2ccc(Cl)cc2Cl)n1 | 14
O=C(NC(=O)c1ccccc1F)OCc1ccc(Cl)cc1Cl | 16
O=[N+]([O-])c1ccc2sc(SCc3nc4ccccn4c3Br)nc2c1 | 6
Cc1ccccc1-c1nnnn1C1CCS(=O)(=O)C1 (stereo unspecified) | 10
CCOC(=O)C(CCCCCOc1ccccc1[N+](=O)[O-])C(=O)OCC | 12
CCOc1ccccc1CN1CCN(C2CCSCC2)CC1CCO (stereo unspecified) | 12
O=C(c1cc(-c2ccccc2)n[nH]1)N1CCc2c([nH]c3ccccc23)C1c1ccccn1 (stereo unspecified) | 17
COCCCNC(=S)Nc1ccc(C)cc1[N+](=O)[O-] | 3
CCOC(=O)C1(Cc2ccccc2C(F)(F)F)CCN(C(C)CSC)CC1 (stereo unspecified) | 18
